High-throughput results from PubChem BioAssay.
HCMV NEC inh: inhibitors of HCMV UL50-UL53 interaction, biochemical, HTRF. HCMV UL50-UL53 nuclear egress complex (human cytomegalovirus). normalized percent inhibition. inhibition, % (no concentration beside the values). 190,000 tested, 0.15% active;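 active = both replicates at 50% or more, plus weaker picks with an unusually low signal ratio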;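 note: stock transfer was 100 nL into about 20 µL; 0% = negative control wells and 100% = wells with untagged competitor protein; inactives centre near -12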
GIV Gai3 FP: inhibitors of GIV peptide binding to Galpha-i3, primary screen, biochemical, fluorescence polarization, FITC-GIV GBA peptide, rat Galphai3; Guanine nucleotide-binding protein G(i) subunit alpha-3 (Rattus norvegicus), P08753; 90 min; stronger effect = lower value; scaled: aluminum fluoride 0%, vehicle 100%; percent of control (FP), % (test concentration not listed); 210,000 tested, 0.42% active;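 active = replicate mean at 85% of control or lower, very high polarization wells dropped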;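 note: wells of about 15 µL received 100 nL stock; the first replicate is given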
Target sequence (P08753 whole entry, looked up): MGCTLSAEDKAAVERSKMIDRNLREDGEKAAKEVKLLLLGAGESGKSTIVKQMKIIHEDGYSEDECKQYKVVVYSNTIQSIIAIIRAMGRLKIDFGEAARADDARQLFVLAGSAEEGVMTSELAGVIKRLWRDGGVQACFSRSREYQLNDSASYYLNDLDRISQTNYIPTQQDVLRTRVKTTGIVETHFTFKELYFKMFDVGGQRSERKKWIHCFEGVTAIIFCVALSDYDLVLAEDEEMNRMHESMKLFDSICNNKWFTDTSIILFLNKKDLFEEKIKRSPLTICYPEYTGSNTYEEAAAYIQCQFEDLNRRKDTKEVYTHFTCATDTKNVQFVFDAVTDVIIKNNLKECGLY
Sa growth 42C: S. aureus growth inhibition at 42 and 30 °C, primary screen, LtaS inhibitor project, RN4220, two temperatures; 170,000 tested, 0.53% active; OD600, 20 h, 42 °C; stronger effect = lower value; relative growth, % (concentration not given with the values); AID 720641, 2013;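 active = growth at 42 °C up to 50% and 20 or more points under that at 30 °C, or under 10% at both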;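 note: 300 nL library stock went into each well; scaled to the means of positive and negative controls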
Sa growth 42C second temp: recorded beside Sa growth 42C, whose call it bears; relative growth, %; measured here: growth at 30 °C;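 optical density after 20 h as mean of two plates; 100% = untreated growth and lower means inhibition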
* marks the source's active call; other numbers are inactive results; & = joins results of further samples.

CCOC(=O)c1c(-c2ccccc2)oc2ccc(N(C(C)=O)S(=O)(=O)c3ccc(C)cc3)cc12 was read as HCMV NEC inh -51, GIV Gai3 FP 104, Sa growth 42C 105 and Sa growth 42C second temp 88.
For CCOC(=O)c1cn(CC(=O)Nc2ccc(OC)cc2OC)nn1 the results were HCMV NEC inh -3, GIV Gai3 FP 108, Sa growth 42C 94 and Sa growth 42C second temp 88.
`Cc1nc2cc(C(=O)Nc3ccc(Cn4ccnc4)cc3)ccc2n1-c1ccccc1` gave HCMV NEC inh -10, Sa growth 42C 66 and Sa growth 42C second temp 11.
For O=C(NCc1ccc2c(c1)OCO2)C(F)(F)F the results were HCMV NEC inh -11, Sa growth 42C 89 and Sa growth 42C second temp 82.
For COC(=O)c1c(-c2ccc(Cl)cc2)noc1N1CCN(c2cc(C)ccc2C)CC1 the results were GIV Gai3 FP 109, Sa growth 42C 91 and Sa growth 42C second temp 96.
Screening Cc1ccc(C2c3[nH]c4ccccc4c3CCN2C(=O)CSc2ccccc2)cc1 (configuration not stated) returned GIV Gai3 FP 102, Sa growth 42C 76 and Sa growth 42C second temp 89.
Screening NNC(=O)c1nc(-c2cccc(-n3cccc3)c2)no1 returned HCMV NEC inh -31, GIV Gai3 FP 106, Sa growth 42C 77 and Sa growth 42C second temp 55.
For COc1cc(C)c(CSCC(=O)O)cc1OC the results were HCMV NEC inh -23, Sa growth 42C 99 and Sa growth 42C second temp 98.
Screening COc1ccc(NC(=O)CSc2nnc(-c3nonc3NC(C)=O)n2C)cc1Cl returned HCMV NEC inh -13, GIV Gai3 FP 99, Sa growth 42C 99 and Sa growth 42C second temp 86.
COc1ccc(Cn2c(CCC(=O)NCc3ccc(F)cc3)nc3cccnc32)cc1 was read as HCMV NEC inh -38 and GIV Gai3 FP 103.
Screening CC(C)CCNC(=O)CCCCn1c(=O)c2ccccc2n(CC(=O)NCc2ccc(Cl)cc2)c1=O returned HCMV NEC inh -22 and GIV Gai3 FP 105.
N#Cc1nc(-c2ccc(F)cc2)oc1NC1CCCCC1 was read as GIV Gai3 FP 106, Sa growth 42C 89 and Sa growth 42C second temp 98.
For O=C(C1CC1)N1CCN(c2nc3c(F)cc(F)cc3s2)CC1 the results were GIV Gai3 FP 96, Sa growth 42C 95 and Sa growth 42C second temp 93.
`CCNc1nc(NC(C)C)nc(-n2cnc(SC)n2)n1` gave HCMV NEC inh -16 and GIV Gai3 FP 98.
`COC(=O)c1ccc(NC(=O)CN(C)S(=O)(=O)c2ccc3c(c2)CCCC(=O)N3)cc1` gave GIV Gai3 FP 106, Sa growth 42C 97 and Sa growth 42C second temp 88.
Screening Clc1ccc(N2CCN(Cc3c[nH]c4ncccc34)CC2)cc1 returned HCMV NEC inh -1&5 and GIV Gai3 FP 103.
For CCOc1ccc(CNC(=O)c2cc(-c3ccccc3)n(C)c2C)cc1 the results were HCMV NEC inh -30 and GIV Gai3 FP 104.
Screening CC1CC(CCC(=O)NC(=S)Nc2ccc(S(N)(=O)=O)cc2)C(=O)O1 (configuration not stated) returned HCMV NEC inh -26, GIV Gai3 FP 106, Sa growth 42C 90 and Sa growth 42C second temp 84.
`COc1ccccc1NCC(=O)n1nc(C)cc1C` gave HCMV NEC inh -28, GIV Gai3 FP 102, Sa growth 42C 93 and Sa growth 42C second temp 83.
`COC(=O)c1ccc2c(=O)n(CCc3ccc(S(N)(=O)=O)cc3)c(SCC(=O)C(C)(C)C)nc2c1` gave GIV Gai3 FP 101, Sa growth 42C 96 and Sa growth 42C second temp 77.

The final 5 records of the part before lead into the next:
Screening Clc1ccc(N2CCN(Cc3c[nH]c4ncccc34)CC2)cc1 returned HCMV NEC inh -1&5 and GIV Gai3 FP 103.
For CCOc1ccc(CNC(=O)c2cc(-c3ccccc3)n(C)c2C)cc1 the results were HCMV NEC inh -30 and GIV Gai3 FP 104.
Screening CC1CC(CCC(=O)NC(=S)Nc2ccc(S(N)(=O)=O)cc2)C(=O)O1 (configuration not stated) returned HCMV NEC inh -26, GIV Gai3 FP 106, Sa growth 42C 90 and Sa growth 42C second temp 84.
`COc1ccccc1NCC(=O)n1nc(C)cc1C` gave HCMV NEC inh -28, GIV Gai3 FP 102, Sa growth 42C 93 and Sa growth 42C second temp 83.
`COC(=O)c1ccc2c(=O)n(CCc3ccc(S(N)(=O)=O)cc3)c(SCC(=O)C(C)(C)C)nc2c1` gave GIV Gai3 FP 101, Sa growth 42C 96 and Sa growth 42C second temp 77.
Cc1ccc(C(C)C)cc1OCCN was read as HCMV NEC inh -2, GIV Gai3 FP 101, Sa growth 42C 80 and Sa growth 42C second temp 93.
Screening Cc1cc(C)cc(NC(=O)C2CCCN(S(=O)(=O)c3c(C)noc3C)C2)c1 (configuration not stated) returned HCMV NEC inh -5, GIV Gai3 FP 108, Sa growth 42C 108 and Sa growth 42C second temp 93.
CC(C)c1nc2ccc(C(=O)NCCCN3CCN(c4ccccc4F)CC3)cc2o1 was read as GIV Gai3 FP 97, Sa growth 42C 78 and Sa growth 42C second temp 88.
Cc1ccccc1-c1nc(CSc2nc(C)c(Cc3ccccc3)c(=O)[nH]2)c(C)o1 was read as HCMV NEC inh -39 and GIV Gai3 FP 109.
For COc1ccc(C(C(=O)NCc2ccccc2)N(Cc2ccco2)C(=O)c2cnccn2)cc1 (configuration not stated) the results were HCMV NEC inh -15, GIV Gai3 FP 99, Sa growth 42C 92 and Sa growth 42C second temp 77.
CC(CCc1ccccc1)NC(=O)CSc1cn[nH]n1 (configuration not stated) was read as HCMV NEC inh -1, GIV Gai3 FP 100, Sa growth 42C 94 and Sa growth 42C second temp 74.
For CCN(C(=O)C1CCN(c2ncnc3c2nc2n3CCCCC2)CC1)c1cccc(Cl)c1 the results were GIV Gai3 FP 99, Sa growth 42C 116 and Sa growth 42C second temp 102.
For CCOCCOC(=O)C1=C(C)NC2=C(C(=O)CC(c3ccc(OC)cc3)C2)C1c1cccc2ccccc12 (configuration not stated) the results were HCMV NEC inh -21 and GIV Gai3 FP 103.
Screening C[N+](C)(C)CCC(O)c1ccccc1 (configuration not stated) returned GIV Gai3 FP 101, Sa growth 42C 96 and Sa growth 42C second temp 86.
For Cc1ccc(NC(=O)CS(=O)(=O)c2ccc3c(c2)n(C)c(=O)n3C)c(Cl)c1 the results were HCMV NEC inh 3 and GIV Gai3 FP 104.
Cc1ccc(C(=O)COC(=O)c2ccc(Br)cn2)cc1 was read as HCMV NEC inh -4, GIV Gai3 FP 101, Sa growth 42C 89 and Sa growth 42C second temp 95.
For CCOC(=O)N1CCN(C(=O)CN2C(=O)/C(=C/c3ccc(OCC)cc3)SC2=S)CC1 the results were HCMV NEC inh -29, GIV Gai3 FP 105, Sa growth 42C 101 and Sa growth 42C second temp 85.
COc1ccc(C(C)=O)cc1CSc1nc(NCc2ccccc2)c2ccccc2n1 was read as GIV Gai3 FP 102, Sa growth 42C 129 and Sa growth 42C second temp 85.
CC1CCC(Nc2ncnc3onc(-c4ccc(Cl)cc4)c23)CC1 (configuration not stated) was read as GIV Gai3 FP 100, Sa growth 42C 86 and Sa growth 42C second temp 86.
Screening CC(=O)N1CCc2cc(Br)cc(S(=O)(=O)CCC(=O)N3CCN(c4ccccc4Cl)CC3)c21 returned HCMV NEC inh -10, GIV Gai3 FP 93, Sa growth 42C 102 and Sa growth 42C second temp 95.
`O=c1n(-c2ccccc2)c(=O)n2n1C1C=CC2C1` gave HCMV NEC inh -1, GIV Gai3 FP 106, Sa growth 42C 113 and Sa growth 42C second temp 93.
For COC(=O)c1cc(C(=O)OC)cc(N2Cc3nccnc3C2=O)c1 the results were GIV Gai3 FP 100, Sa growth 42C 111 and Sa growth 42C second temp 94.
`O=C1OCCC1Sc1nc2sccc2c(=O)n1-c1ccccc1` (configuration not stated) gave HCMV NEC inh -34, Sa growth 42C 102 and Sa growth 42C second temp 62.
For Cc1ccc(NC(=O)CSC2CC(=O)N(c3ccccc3)C2=O)c(Cl)c1 (configuration not stated) the results were HCMV NEC inh -15, GIV Gai3 FP 101, Sa growth 42C 88 and Sa growth 42C second temp 80.
Screening CCCOc1ccc2oc(=O)c3c(c2c1)CCCN3C(=O)CN1CCCc2ccccc21 returned GIV Gai3 FP 109, Sa growth 42C 99 and Sa growth 42C second temp 93.

Pulled by compound from the entries so far (five):
CC1CCC(Nc2ncnc3onc(-c4ccc(Cl)cc4)c23)CC1 (configuration not stated) was read as GIV Gai3 FP 100, Sa growth 42C 86 and Sa growth 42C second temp 86.
For CCOC(=O)N1CCN(C(=O)CN2C(=O)/C(=C/c3ccc(OCC)cc3)SC2=S)CC1 the results were HCMV NEC inh -29, GIV Gai3 FP 105, Sa growth 42C 101 and Sa growth 42C second temp 85.
Screening CCCOc1ccc2oc(=O)c3c(c2c1)CCCN3C(=O)CN1CCCc2ccccc21 returned GIV Gai3 FP 109, Sa growth 42C 99 and Sa growth 42C second temp 93.
`O=c1n(-c2ccccc2)c(=O)n2n1C1C=CC2C1` gave HCMV NEC inh -1, GIV Gai3 FP 106, Sa growth 42C 113 and Sa growth 42C second temp 93.
Cc1ccc(C(=O)COC(=O)c2ccc(Br)cn2)cc1 was read as HCMV NEC inh -4, GIV Gai3 FP 101, Sa growth 42C 89 and Sa growth 42C second temp 95.

New compounds follow:
For COc1ccccc1NCCC(=O)O the results were HCMV NEC inh -18, Sa growth 42C 110 and Sa growth 42C second temp 90.
`CCc1cccc(NC(=O)CCS(=O)(=O)c2cc3c4c(c2)CCN4C(=O)CC3)c1` gave GIV Gai3 FP 103, Sa growth 42C 86 and Sa growth 42C second temp 88.
Screening O=C(NC1CCCC1)C1CCCCN1S(=O)(=O)c1ccc(Br)cc1 (configuration not stated) returned HCMV NEC inh -16 and GIV Gai3 FP 103.
For COc1ccc(-n2cc(-c3ccccc3)c3c(NC4CCCCC4)ncnc32)cc1 the results were GIV Gai3 FP 103, Sa growth 42C 111 and Sa growth 42C second temp 99.
Screening OC1(c2ccc(Br)cc2)NN=C2CCCCCN21 (configuration not stated) returned HCMV NEC inh -7, GIV Gai3 FP 108, Sa growth 42C 95 and Sa growth 42C second temp 94.
`CC(C)(C)c1cc2n(n1)C1=NCCN1C=N2` gave HCMV NEC inh -22, GIV Gai3 FP 103, Sa growth 42C 104 and Sa growth 42C second temp 96.
COC(=O)C1CCN(S(=O)(=O)c2cc(N3C(=O)CCS3(=O)=O)ccc2OC)CC1 was read as HCMV NEC inh -2 and GIV Gai3 FP 99.
Screening CC1CCc2c(sc(NC(=O)CSc3ncn[nH]3)c2C#N)C1 (configuration not stated) returned HCMV NEC inh 40, GIV Gai3 FP 107, Sa growth 42C 93 and Sa growth 42C second temp 78.
For COC(=O)Cn1c(C(=O)OC)cc2c1ccn2-c1ccc(F)cc1 the results were HCMV NEC inh -6, GIV Gai3 FP 99, Sa growth 42C 102 and Sa growth 42C second temp 89.
Screening CCOc1ccc(NC(=O)N2CCCC(CN3CCc4ccccc4C3)C2)cc1 (configuration not stated) returned GIV Gai3 FP 102, Sa growth 42C 105 and Sa growth 42C second temp 87.
CC(C)Oc1ccc(C(F)(F)F)cc1NC(=O)C1CC1 was read as HCMV NEC inh -17, GIV Gai3 FP 108, Sa growth 42C 102 and Sa growth 42C second temp 106.
Screening CCOc1ncccc1C(=O)OCC(=O)N1C(C)CCCC1C (configuration not stated) returned HCMV NEC inh 0, Sa growth 42C 105 and Sa growth 42C second temp 94.
Screening CCC(C)NC(=O)c1c(C)oc2nc(C)nc(N3CCOCC3)c12 (configuration not stated) returned GIV Gai3 FP 107, Sa growth 42C 106 and Sa growth 42C second temp 85.
For COc1ccc(N(/N=C2\Sc3ccccc3C2=O)C(C)=O)cc1 the results were HCMV NEC inh -3, GIV Gai3 FP 110, Sa growth 42C 91 and Sa growth 42C second temp 88.
Screening O=C(NCCCN1CCOCC1)c1ccc(NC(=O)c2ccccc2)cc1 returned HCMV NEC inh -35, GIV Gai3 FP 102, Sa growth 42C 120 and Sa growth 42C second temp 97.
COC(=O)c1sc(NC(=O)CN2CCCCC2C)c(C(=O)OC)c1C (configuration not stated) was read as HCMV NEC inh 5, GIV Gai3 FP 113, Sa growth 42C 113 and Sa growth 42C second temp 98.
Nn1c(-c2ccccn2)nnc1-c1ccccn1 was read as HCMV NEC inh 5, Sa growth 42C 80 and Sa growth 42C second temp 97.
Screening COc1ccc(-c2csc(NCc3ccccc3)n2)cc1 returned HCMV NEC inh 3&-2, Sa growth 42C 139&115 and Sa growth 42C second temp 91&102.
For CC1(C)OC(=O)N(Nc2ccccc2)C1(C)O (configuration not stated) the results were HCMV NEC inh -8, Sa growth 42C 85 and Sa growth 42C second temp 86.
Screening Cc1cccc(OCC(=O)Nc2ccc(CN3CCOCC3)cc2)c1C returned HCMV NEC inh -8, GIV Gai3 FP 110, Sa growth 42C 99 and Sa growth 42C second temp 99.
For CCOc1nnc(-c2ccc(OC)cc2)c2ccccc12 the results were HCMV NEC inh -19 and GIV Gai3 FP 105.
Fc1ccc(C=Nc2ccc(-n3cccc3)cc2)cc1 was read as HCMV NEC inh 2, GIV Gai3 FP 102, Sa growth 42C 102 and Sa growth 42C second temp 85.
Screening COc1ccc(-c2nc(CCNC(=O)COc3ccc(C(C)(C)C)cc3)cs2)cc1 returned HCMV NEC inh -17 and GIV Gai3 FP 97.
`Cc1cc(C)c(S(=O)(=O)NCC2CCC(C(=O)NCCc3ccccc3)CC2)c(C)c1` (configuration not stated) gave GIV Gai3 FP 105, Sa growth 42C 108 and Sa growth 42C second temp 92.
